# Screens from PubChem.
# HDAC3 inh: inhibitors of human histone deacetylase 3; 0.15% of 320,000 active; recombinant HDAC3, fluorogenic peptide/trypsin coupled, fluorescence; inhibition, % at 8.3 µM; AID 2718; in the data active = inhibition above about 26%, passing the limit was not always enough; inconclusive = no clear call, values can overlap the other calls
# Target sequence (O15379 whole entry, looked up): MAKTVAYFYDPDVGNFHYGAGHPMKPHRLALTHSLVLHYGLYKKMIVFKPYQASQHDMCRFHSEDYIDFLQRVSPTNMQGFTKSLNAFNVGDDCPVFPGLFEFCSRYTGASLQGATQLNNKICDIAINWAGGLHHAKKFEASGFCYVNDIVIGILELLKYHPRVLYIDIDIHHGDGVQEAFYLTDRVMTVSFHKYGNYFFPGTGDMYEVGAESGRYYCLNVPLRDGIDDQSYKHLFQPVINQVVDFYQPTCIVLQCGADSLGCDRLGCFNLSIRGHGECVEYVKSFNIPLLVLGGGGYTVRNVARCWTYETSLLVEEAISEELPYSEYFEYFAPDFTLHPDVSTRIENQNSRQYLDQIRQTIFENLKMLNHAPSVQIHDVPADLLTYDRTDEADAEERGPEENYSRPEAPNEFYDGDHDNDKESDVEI
# IEC-6 cytotox: kills IEC-6 intestinal cells in KLF5 counter-screen | IEC-6 cytotoxicity, luminescence viability | inhibition, % at 5 µM | 0.78% of 290,000 active | AID 1825; in the data active = inhibition above about 22%;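 also: 0% = plate median of test compound wells and 100% = cytotoxic reference compound wells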
# AI-2 QS modul: Vibrio harveyi AI-2 quorum sensing modulation; Vibrio harveyi JMH597 AI-2 luminescence/OD600 ratio, 9 h; stronger effect = lower value; strain lacks LuxN and CqsS sensors; 0 = neutral-control median; activity change, % at 7.5 µM; 0.4% of 300,000 active; AID 2094; in the data active = activity change below about -75%, passing the limit was not always enough; inconclusive = no clear call, values can overlap the other calls;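 also: luminescence divided by OD600 gain over 9 h not by final OD600 alone; inactives centre near 13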
# KLF5 inh: inhibitors of KLF5 expression | DLD-1 KLF5 promoter-luciferase reporter, luminescence | inhibition, % at 5 µM | AID 1700 | 0.23% of 290,000 active;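 active = inhibition above a per-plate limit of that plate's mean compound inhibition plus 3 SD, cut at about 60% in these data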;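 also: 0% = DMSO wells and 100% = LY294002 at 200 µM; higher means less KLF5 promoter-driven luciferase light; inactives centre near -14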
# aSyn UTR inh: 5' untranslated region of α-synuclein, MLPCN primary screen; alpha-synuclein 5'UTR reporter, inhibitor activity; inhibition, % (tested at 7.5 µM); 0.82% of 300,000 active; in the data active = inhibition above about 60%; inconclusive = no clear call, values can overlap the other calls;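 also: H4 neuroglioblastoma cells stably carrying SNCA 5'UTR luciferase fusion; 0% = DMSO wells and 100% = positive control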
# The depositor's hits bear a star; ? = inconclusive; / = not tested or not shown; & = joins results of further samples. These rows are one share of the data. The share of hits here may be higher or lower than overall.
SMILES	HDAC3 inh	IEC-6 cytotox	AI-2 QS modul	KLF5 inh	aSyn UTR inh
NCCS	4	-4	22	-4	-12
CC(C)NC[C@@H](O)c1ccc(O)c(O)c1	4	6	8	-18	30
O=C(O)[C@H](O)[C@@H](O)C(=O)O	4	/	/	/	/
O=C(Nc1ccccn1)C(=O)Nc1ccccn1	/	-4	21	-140	-95
Fc1ccc(-c2cn3ccccc3n2)cc1	-20	4	16	-158	-37
CC(=O)OCC(=O)[C@@]1(O)CC[C@H]2[C@@H]3CCC4=CC(=O)C=C[C@]4(C)[C@H]3[C@@H](O)C[C@@]21C	-6	4	22	-21	-4
O=C(O)c1cccc(NC(=S)NC(=O)c2ccc(-c3ccccc3)cc2)c1	6	11	67	-127	33
COc1ccccc1OC[C@H](O)CO	-3	-6	4	-41	-19
Cc1nc(-c2ccc(C(=O)Nc3cccc(F)c3)cc2)cs1	-3	8	/	40	48
OCc1cccnc1	-8	/	18	/	-5
Cc1nc2c(-c3ccccc3)cnn2c(N)c1-c1ccccc1	-2	-15	36	39	10
O=C(Nc1nc2cc3c(cc2s1)OCO3)C1=COCCO1	/	21	18	78*	95*

# Exported with values under each structure: entries from further up
# Screens in order – HDAC3 inh	IEC-6 cytotox	AI-2 QS modul	KLF5 inh	aSyn UTR inh
- O=C(Nc1ccccn1)C(=O)Nc1ccccn1
→ /	-4	21	-140	-95
- COc1ccccc1OC[C@H](O)CO
→ -3	-6	4	-41	-19

# Entries from the list above that contain four or more nitrogen atoms:
SMILES	HDAC3 inh	IEC-6 cytotox	AI-2 QS modul	KLF5 inh	aSyn UTR inh
O=C(Nc1ccccn1)C(=O)Nc1ccccn1	/	-4	21	-140	-95
Cc1nc2c(-c3ccccc3)cnn2c(N)c1-c1ccccc1	-2	-15	36	39	10

# More results:
SMILES	HDAC3 inh	IEC-6 cytotox	AI-2 QS modul	KLF5 inh	aSyn UTR inh
COC(=O)c1sccc1NC(=O)Nc1ccc(C)c(C)c1	6	-7	19	-32	/
Nc1ccn(C2CC(O)C(CO)O2)c(=O)n1 (configuration not stated)	0	-2	21	-40	-10
C[N+]12CCC(CC1)C(OC(=O)C(O)(c1ccccc1)c1ccccc1)C2 (configuration not stated)	-4	-4	14	-8	22
Cc1cc([N+](=O)[O-])ccc1N	0	/	-4	/	-6
COCCn1c(C)cc(C(=O)COC(=O)c2ccccc2Br)c1C	4	2	7	56	?
Nc1ncnc2c1ncn2C1OC(COP(=O)(O)O)C(O)C1O (configuration not stated)	-9	4	10	-23	-6
CNC[C@H](O)c1cccc(O)c1	3	3	47	-23	-1
COc1ccc(-c2cn3ccccc3n2)cc1	-5	8	8	-61	21
Cc1nc2c(-c3ccc(F)cc3)cnn2c(N)c1-c1ccccc1	0	-8	-4	41	41
NS(=O)(=O)c1ccc(C(=O)O)cc1	-7	4	0	6	-26
CC(=O)CC(c1ccccc1)c1c(O)c2ccccc2oc1=O (configuration not stated)	4&-6&14	-6&0	8&-6&17	-33&-33	28&-13&2
CNCCC(Oc1ccc(C(F)(F)F)cc1)c1ccccc1 (configuration not stated)	4	-6	27	-16	5

# Six compounds from above with just HDAC3 inh.
smiles | HDAC3 inh
COCCn1c(C)cc(C(=O)COC(=O)c2ccccc2Br)c1C | 4
Nc1ncnc2c1ncn2C1OC(COP(=O)(O)O)C(O)C1O (configuration not stated) | -9
Cc1cc([N+](=O)[O-])ccc1N | 0
Cc1nc2c(-c3ccc(F)cc3)cnn2c(N)c1-c1ccccc1 | 0
C[N+]12CCC(CC1)C(OC(=O)C(O)(c1ccccc1)c1ccccc1)C2 (configuration not stated) | -4
Nc1ccn(C2CC(O)C(CO)O2)c(=O)n1 (configuration not stated) | 0
